RE007 growth inh – less growth of the S. pombe RE007 Vpr strain | S. pombe RE007 Vpr strain, BacTiter-Glo ATP luminescence, 24 h; control for the full effect not named in the record | Potency, µM (top dose mostly 92.2 µM), without a hit: at the top dose activity change, negative = less growth | 360,000 compounds, 0.21% hits | AID 651644; active = well fitted falling curve with a large enough effect; inconclusive = small, poorly fitted or top-dose-only effect; inactive = no such curve, though single readings can be large or run the other way;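 further: on the % scale 0 is the no-effect control and ±100 the full control effect; nearly all actives have a fitted effect of over 50% in size; the assay follows cell death caused by Vpr and the record does not say whether a fall means rescue or toxicity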
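Fission yeast RE007 carrying one integrated HIV-1 vpr copy, seeded at OD 0.01 in PMG+AL medium with 23 nL pinned compound. Grown 24 h at 30 degrees; viability read by BacTiter-Glo luminescence after 5 min.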
2A StopGo – FMDV 2A StopGo reporter, luciferase signal; human cells with a luciferase reporter of 2A StopGo recoding; control for the full effect not named in the record; Potency, µM (highest dose often 57.9 µM), for the others: at the highest dose signal change, negative = less light; 410,000 compounds, 1.2% hits; AID 1159524; active = well fitted falling curve with a large enough effect; inconclusive = small, poorly fitted or top-dose-only effect; inactive = no such curve, though single readings can be large or run the other way; tested in HEK293T cells; further: on the % scale 0 is the no-effect control and ±100 the full control effect; nearly all actives have a fitted effect of over 45% in size; luciferase light after 4 h
Cruzain inh Det – blocks cruzain activity in presence of Triton detergent; 200,000 compounds, 0.43% hits; Potency, µM, inactives show max response, negative = inhibition, hits mostly inhibitors; purified cruzain, Z-FR-AMC fluorescence, 0.01% Triton; P25779;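 further: plate controls were neutral wells for no effect and buffer without enzyme for full effect; nearly all actives have a fitted effect of over 40% in size; top concentration of the series not given in the record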
Target sequence (P25779 123-467 limits assumed): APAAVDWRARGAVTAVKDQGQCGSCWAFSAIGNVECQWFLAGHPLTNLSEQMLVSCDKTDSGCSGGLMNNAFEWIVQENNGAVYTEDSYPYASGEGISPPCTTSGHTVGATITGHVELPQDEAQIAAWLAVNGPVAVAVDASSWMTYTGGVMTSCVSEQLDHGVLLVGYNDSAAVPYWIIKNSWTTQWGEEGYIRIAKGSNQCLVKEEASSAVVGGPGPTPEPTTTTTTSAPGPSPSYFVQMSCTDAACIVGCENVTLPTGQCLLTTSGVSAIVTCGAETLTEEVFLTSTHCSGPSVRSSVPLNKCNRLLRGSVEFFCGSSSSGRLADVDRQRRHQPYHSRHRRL
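In this qHTS format, compounds are incubated with 1.5 nM cruzain for 15 min at room temperature before 2 uM Z-FR-AMC is added. Release of AMC is followed at 360/450 nm, and progress is taken as the 60 s fluorescence difference.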
SARS PLP yeast – inhibitors of SARS-CoV papain-like protease in yeast. Potency, µM (doses to about 32.9 µM), inactives show at the highest dose activity, positive = growth rescue. 330,000 compounds, 0.19% hits. S. cerevisiae expressing SARS-CoV PLpro, growth rescue; control for the full effect not named in the record; active means well fitted rising curve with a large enough effect; inconclusive means small, poorly fitted or top-dose-only effect; inactive means no such curve, though single readings can be large or run the other way; further: 0% is about no effect; nearly all actives have a fitted effect of over 55% in size; growth read by luminescence after 48 h
Cruzain inh noDet – cruzain (T. cruzi) inhibition without detergent; P25779; purified cruzain, Z-FR-AMC fluorescence, no detergent; Potency, µM, without a hit: max response, negative = inhibition, usual class: inhibitors; 200,000 compounds, 2.3% hits; AID 1476;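 further: plate controls were enzyme without inhibitor for no effect and buffer without enzyme for full effect; nearly all actives have a fitted effect of over 40% in size; top concentration of the series not given in the record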
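Purified cruzain at 1.5 nM, pre-incubated 15 min with compound at room temperature in 100 mM sodium acetate pH 5.5, 5 mM DTT, 0.00005% Triton X-100. Reaction started with 2 uM Z-FR-AMC; AMC fluorescence increase over 60 s gives rate.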
NS1 inh – blocks influenza NS1 protein function | Potency, µM (highest dose often 46.1 µM), for inactives: at the highest dose activity, positive = more growth | AID 2326 | 270,000 compounds, 0.4% hits | S. cerevisiae slowed by influenza A NS1, growth recovery by OD600; active means well fitted rising curve with a large enough effect; inconclusive means small, poorly fitted or top-dose-only effect; inactive means no such curve, though single readings can be large or run the other way; further: nearly all actives have a fitted effect of over 50% in size
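OD600 was taken as the measure of yeast growth restored by compound in an NS1-expressing S. cerevisiae strain. Cells had been washed out of glucose medium and diluted 1:100 into galactose -URA medium, pH 6.0.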
LASV entry inh – blocks Lassa virus binding to or entry into cells; 300,000 compounds, 1.2% hits; Lassa virus pseudotype entry inhibition, cell reporter; control for the full effect not named in the record; Potency, µM (series often up to 37.9 µM), inactives show at the top dose activity change, negative = inhibition, actives largely listed as inhibitors; active means well fitted inhibition curve with a large enough effect; inconclusive means small, poorly fitted or top-dose-only effect, or effect the other way; inactive means flat fitted curve, though single readings scatter; tested in HEK293 cells; further: on the % scale 0 is the no-effect control and ±100 the full control effect; nearly all actives have a fitted effect of over 50% in size; luciferase read-out
Marburg entry inh – blocks Marburg virus binding to or entry into cells | Marburg virus pseudotyped entry inhibition, cell reporter; control for the full effect not named in the record; about a third of the inactives were read at about 46 µM | Potency, µM (highest dose often 37.8 µM), for inactives: at the highest dose activity change, negative = inhibition, hits mostly inhibitors | 300,000 compounds, 1.8% hits; active = well fitted inhibition curve with a large enough effect; inconclusive = small, poorly fitted or top-dose-only effect, or effect the other way; inactive = flat fitted curve, though single readings scatter; tested in HEK293 cells; about a fifth of its hits are not listed in these tables; further: on the % scale 0 is the no-effect control and ±100 the full control effect; luciferase read-out
An asterisk follows results filed as active; ? = inconclusive; . = no result given; & = joins results of further samples; [ ] = another dose, or the depositor's remark. Unless noted, the call rests on the fitted dose curve; in most records, active means well fitted curve in the direction sought with a large enough effect; inconclusive means small, poorly fitted or top-dose-only effect, or another doubt; inactive means no such curve, though single readings can be large; an effect the other way counts as inactive or inconclusive. Potency means the concentration at half of the fitted maximal effect.

SMILES	RE007 growth inh	2A StopGo	Cruzain inh Det	SARS PLP yeast	Cruzain inh noDet	NS1 inh	LASV entry inh	Marburg entry inh
CSc1nc(C)cc(Nc2c(C)cc(C)cc2C)n1	.	?	-5.8%	.	-12%	.	0%[46.1 µM]	0%[46.1 µM]
CCCOc1cccc(C(=O)N(Cc2ccc(OC)c(OC)c2)C2CCS(=O)(=O)C2)c1 (stereo not given)	10%	-6%	-7.0%	0%	1%	-2%	-8%	5%
O=c1c2c(nc3nc[nH]n13)CCC2	-13%	-8%	-2.8%	4%	-2%	3%	10%	5%
O=C(C1=C(O)C(=O)N(Cc2ccccc2)C1c1cccnc1)c1ccco1 (stereo not given)	3%	51%[activator]	.	.	.	-3%	-16%	14%
c1ccc2[nH]c(CSc3nc4ccccc4s3)nc2c1	?	?	?	-26%	16µM*	-147%	2%	4%
COc1ccc(/C=N/S(=O)(=O)c2ccc(C)cc2)cc1	-7%	26%	.	5%	.	.	26%[46.1 µM]	4%[46.1 µM]
O=C(Cc1ccc(Cl)cc1)N1CCN(c2ccccc2)CC1	-3%	7%	.	-1%	.	-35%	.	.
Cc1cccc(NC(=O)CCC2CCN(C(=O)c3ccc(C)s3)CC2)c1	15%	-20%	.	5%	.	12%	3%[46.1 µM]	1%[46.1 µM]
O=c1[nH]cnc2cc(-c3ccccc3)sc12	-25%	27%	-3.3%	1%	4%	-56%	7%	-12%&-12%
O=C(CSc1nnnn1-c1ccccc1)NC1CCCc2ccccc21 (stereo not given)	-6%	-7%	-2.1%	18%	9%	-6%	.	6%

SMILES	RE007 growth inh	2A StopGo	Cruzain inh Det	SARS PLP yeast	Cruzain inh noDet	NS1 inh	LASV entry inh	Marburg entry inh
COc1ccc(N2CC(C(=O)NCCN3C(=O)S/C(=C\c4cccnc4)C3=O)CC2=O)c(OC)c1 (stereo not given)	-4%	-24%	.	2%	.	.	12%	-24%
Cc1ccc(S(=O)(=O)Nc2nc(N)n(-c3ccccc3)n2)cc1	-7%	-12%	.	1%	.	.	-1%	6%[46.1 µM]
Cc1cccn2c(=O)c3cc(C(=O)NCC4CCCO4)c(=N)n(CC4CCCO4)c3nc12 (stereo not given)	-11%	-15%	.	1%	.	-11%	14%	?
CC(=O)NC12CC3CC(C1)CC(C(=O)Nc1nc4c(C)cccc4s1)(C3)C2	16%	-7%	.	-6%	.	19%	?	-6%
Cc1ccc(N=C2S/C(=C\c3cn(CC(=O)O)c4ccccc34)C(=O)N2C)cc1	-6%	-30%	-19%	6%	?	30%	-9%	-8%
COc1cccc(C(=O)Nc2ncc3c(n2)CC(C)CC3=O)c1 (stereo not given)	-8%	13%	-1.0%	-6%	-4%	-5%	8%	4%
CCC1(CC)C(=O)NC(=O)NC1=NCCc1c[nH]c2ccccc12	3%	-5%	1.0%	6%	-2%	-7%	4%	1%
Cc1cc(C)cc(-n2c(SCC(=O)NCC3CCCO3)nc3c([nH]c4ccccc43)c2=O)c1 (stereo not given)	.	1%	-3.9%	.	10%	.	?	.
Cn1nc(C(=O)NCc2ccc(F)cc2)c2c1-c1ccccc1S(=O)(=O)C2	12%	0%	.	-3%	.	-2%	.	.
CN1C(=O)/C(=C/c2ccc(C(=O)Nc3ccc(O)cc3C(=O)O)cc2)SC1=S	-5%	26%	.	0%	.	23%	.	.

SMILES	RE007 growth inh	2A StopGo	Cruzain inh Det	SARS PLP yeast	Cruzain inh noDet	NS1 inh	LASV entry inh	Marburg entry inh
Cc1nonc1C(=O)N/N=C/c1ccc(O)cc1O	?	28%	.	0%	.	2%	?	?
Cc1cc(-c2csc(Nc3ccccn3)n2)ccc1F	-21%	-33%	.	4%	.	-21%	?	?
COc1ccc(S(=O)(=O)N2CCCCC2)cc1NC(=O)Cc1ccsc1	17%	-5%	.	1%	.	.	-30%	?
CC1CCCN(C(=O)c2ccncc2)C1 (stereo not given)	-6%	14%	2.0%	2%	-11%	2%	15%	-3%
CCN(CC(=O)N1CCN(Cc2ccccc2)CC1)S(=O)(=O)c1ccc(F)cc1	0%	-28%	.	?	.	1%	-9%	-16%
Cc1cc(NC(=O)CSc2nnc(C3COc4ccccc4O3)o2)no1 (stereo not given)	2%	-9%	5.4%	9%	7%	-1%	30%	0%
Nc1nc(Nc2ccc(Cl)cc2)nc2ccccc12	?	-17%	28µM*	-34%	10µM*	-27%	?	?
COC(=O)c1ccc(CN2CCCC(CO)(Cc3ccccc3F)C2)cc1 (stereo not given)	-1%	-21%	.	1%	.	9%	.	.
CCC(=O)NC(C)C(c1cccs1)N1CCN(c2ccccc2)CC1 (stereo not given)	2%	-14%	-2.3%	18%	7%	-2%	-16%	-6%
COc1ccc(/C(O)=C2/C(=O)C(=O)N(CCCC(=O)O)C2c2ccc(OC)cc2)cc1 (stereo not given)	-9%	-6%	2.4%	10%	2%	8%	18%	13%

Three compounds from above, ordered by heavy-atom count, high to low.
SMILES	RE007 growth inh	2A StopGo	Cruzain inh Det	SARS PLP yeast	Cruzain inh noDet	NS1 inh	LASV entry inh	Marburg entry inh
COc1ccc(S(=O)(=O)N2CCCCC2)cc1NC(=O)Cc1ccsc1	17%	-5%	.	1%	.	.	-30%	?
Cc1cc(-c2csc(Nc3ccccn3)n2)ccc1F	-21%	-33%	.	4%	.	-21%	?	?
Cc1nonc1C(=O)N/N=C/c1ccc(O)cc1O	?	28%	.	0%	.	2%	?	?

Later entries:
SMILES	RE007 growth inh	2A StopGo	Cruzain inh Det	SARS PLP yeast	Cruzain inh noDet	NS1 inh	LASV entry inh	Marburg entry inh
COC(=O)c1c(NC(=O)CSc2nnc(-c3ccco3)n2C)sc(C)c1C	0%	-7%	-8.3%	3%	?	5%	-2%	-15%[46.1 µM]
COc1ccc(-c2nn(-c3ccccc3C)cc2CNC(C)Cn2cncn2)cc1F (stereo not given)	-11%	-8%	.	0%	.	-2%	-6%[46.1 µM]	15%[46.1 µM]
CC1N(O)C(c2ccc(Cl)cc2Cl)N(O)C1(C)C (stereo not given)	0%	-3%	1.6%	-6%	4%	-1%	13%	17%
CN=CC1=C(O)c2ccccc2C1=O	-7%	54%[activator]	-4.9%	-4%	-6%	-1%	17%	8%
CC#CCOC(=O)c1c(C)nc2sc3c(c2c1N)CC[C@@H](O)C3	.	-10%	-1.6%	.	0%	.	.	-38%&-38%
CC(C)=C1C2CCC1C1C(=O)N(c3nc(-c4ccccc4)c(C)s3)C(=O)C21 (stereo not given)	.	?	-2.3%	8%	-5%	3%	-28%	?
C=CCOc1cccc(CNc2cccc(C(=O)O)c2)c1	8%	33%[activator]	.	5%	.	-3%	.	.
O=C(NCc1cccnc1)Nc1cccc(Cl)c1	3%	32%[activator]	.	4%	.	18%	.	.
CCC1Oc2ccc(C)cc2N(CC(=O)NCCCN2CCOCC2)C1=O (stereo not given)	-11%	8%	.	-1%	.	-8%	0%	-5%[46.1 µM]
CCCCNC(=S)N1CCn2cccc2C1c1ccccc1 (stereo not given)	11%	7%	.	-5%	.	.	-18%[46.1 µM]	?

Random excerpt: three compounds from above
SMILES	RE007 growth inh	2A StopGo	Cruzain inh Det	SARS PLP yeast	Cruzain inh noDet	NS1 inh	LASV entry inh	Marburg entry inh
C=CCOc1cccc(CNc2cccc(C(=O)O)c2)c1	8%	33%[activator]	.	5%	.	-3%	.	.
CC(C)=C1C2CCC1C1C(=O)N(c3nc(-c4ccccc4)c(C)s3)C(=O)C21 (stereo not given)	.	?	-2.3%	8%	-5%	3%	-28%	?
CC#CCOC(=O)c1c(C)nc2sc3c(c2c1N)CC[C@@H](O)C3	.	-10%	-1.6%	.	0%	.	.	-38%&-38%

Reformatted: entries from further up.
> O=C(NCc1cccnc1)Nc1cccc(Cl)c1
  RE007 growth inh: 3%	2A StopGo: 32%[activator]	Cruzain inh Det: .	SARS PLP yeast: 4%	Cruzain inh noDet: .	NS1 inh: 18%	LASV entry inh: .	Marburg entry inh: .

> COc1ccc(-c2nn(-c3ccccc3C)cc2CNC(C)Cn2cncn2)cc1F (stereo not given)
  RE007 growth inh: -11%	2A StopGo: -8%	Cruzain inh Det: .	SARS PLP yeast: 0%	Cruzain inh noDet: .	NS1 inh: -2%	LASV entry inh: -6%[46.1 µM]	Marburg entry inh: 15%[46.1 µM]

Further records
SMILES	RE007 growth inh	2A StopGo	Cruzain inh Det	SARS PLP yeast	Cruzain inh noDet	NS1 inh	LASV entry inh	Marburg entry inh
C=C(C)CN1C(=O)C2(OCCO2)c2ccccc21	5%	-7%	.	6%	.	-1%	9%[46.1 µM]	-12%[46.1 µM]
Cc1cc(C)c(S(=O)(=O)Nc2cccc(-c3cn4ccccc4n3)c2)c(C)c1	.	42%[activator]	-2.2%	.	?	.	?	.
CCOc1ccc(-c2nonc2NC(=O)c2oc3cc(C)ccc3c2C)cc1	.	-16%	-3.2%	.	-24%	.	?	-3%[46.1 µM]
COCCNC(=O)C1(C)Oc2ccccc2NC1=O (stereo not given)	-3%	5%	-4.4%	0%	-2%	-1%	?	?
CCOC(=O)c1sc2cccc(F)c2c1S(=O)(=O)NCc1ccccc1Cl	.	0%	-6.4%	.	9%	.	17%[46.1 µM]	.
Cc1ccc(N2C(=O)c3ccc(C(=O)N4CCN(c5cccc(C)c5C)CC4)cc3C2=O)cc1	-2%	-10%	-3.1%	15%	?	11%	-1%	25%
CC(C)(C)c1ccc(C(=O)NCC(=O)N/N=C/c2cccnc2)cc1	4%	-7%	.	1%	.	-5%	-3%	-3%[46.1 µM]
Cc1ccc(C)n1-c1nnc(N2CCCC(C(=O)Nc3ccc(C(C)C)cc3)C2)s1 (stereo not given)	.	?	-5.9%	.	-13%	.	4%[46.1 µM]	5%[46.1 µM]
CNS(=O)(=O)c1cc(-c2nn3c(C)nnc3c3ccccc23)ccc1C	.	38%[activator]	2.8%	.	-7%	.	-16%[46.1 µM]	.
CC(C)CNC(=O)C1CCCN1S(=O)(=O)c1ccc(Cl)cc1 (stereo not given)	5%	-3%	3.2%	-2%	7%	-11%	7%	-15%
Cc1cccc(N2CCN(C(=O)Nc3cn(CC(C)C)c(=O)c4ccccc34)CC2)c1C	.	0%	-5.4%	.	15%	.	23%[46.1 µM]	.

Bioassay records: PubChem, National Center for Advancing Translational Sciences (NCATS)
